High-throughput results from PubChem BioAssay.
Vaccinia inh = Vaccinia orthopox stage-specific inhibition; Vaccinia-infected cells, mCherry/Venus stage reporter fluorescence; active compounds read low; some inactives read as strong as hits; activity change (mCherry), % (no concentration beside the values); 89,000 tested, 0.01% active;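 active = mCherry past -33% and 40 or more points under the early reporter, replicates agreeing; inconclusive = past -33% without that gap or agreement; tested in A549 cells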;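 note: scaled between vehicle wells and reference inhibitor wells; 23 nL library stock went into each well; one replicate is shown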
Vaccinia inh Venus = also measured in Vaccinia inh; calls as there; activity change (Venus), %; measured here: Venus reporter, other viral stage;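 negative = less Venus signal; first of two replicates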
Numbers without * were called inactive; ? = inconclusive; nt = no result given; & = joins results of further samples.

mol | Vaccinia inh | Vaccinia inh Venus
COc1ccc2c3c([nH]c2c1)[C@@H](CO)N(C(=O)c1cccnc1)CC31CCN(Cc2cccnc2)CC1 | 10.0 | 0.5
O=C(NCC[C@H]1CC[C@H](NS(=O)(=O)Cc2ccccc2)[C@@H](CO)O1)C1CCC1 | 6.9 | 1.0
C[C@@H]1CN([C@H](C)CO)C(=O)c2cccc(NC(=O)C3CC3)c2O[C@@H]1CN(C)S(=O)(=O)c1cn(C)cn1 | 12.6 | 7.9
O=C(C[C@H]1CC[C@@H](NC(=O)CC2CC2)[C@@H](CO)O1)NCc1ccccc1 | 6.6 | 5.4
CNC[C@H]1OCCCC[C@@H](C)Oc2ccc(NC(=O)NC(C)C)cc2C(=O)N([C@H](C)CO)C[C@@H]1C | 12.8 | -5.7
COc1cccc(S(=O)(=O)N2CCCCN3[C@H](C2)[C@@H](c2ccc(-c4ccccc4)cc2)[C@@H]3CO)c1 | 14.7 | 18.0
C[C@H]1CCCCO[C@H](CN(C)C(=O)C2CCCCC2)[C@@H](C)CN([C@@H](C)CO)C(=O)c2cc(NC(=O)c3ccncc3)ccc2O1 | -6.7 | -1.0
CCCC#Cc1cnc2c(c1)C(=O)N([C@H](C)CO)C[C@@H](C)[C@H](CN(C)CCC)O2 | -10.8 | -0.7

Overlap with the part before: 3 compounds, then new ones.
mol | Vaccinia inh | Vaccinia inh Venus
COc1cccc(S(=O)(=O)N2CCCCN3[C@H](C2)[C@@H](c2ccc(-c4ccccc4)cc2)[C@@H]3CO)c1 | 14.7 | 18.0
C[C@H]1CCCCO[C@H](CN(C)C(=O)C2CCCCC2)[C@@H](C)CN([C@@H](C)CO)C(=O)c2cc(NC(=O)c3ccncc3)ccc2O1 | -6.7 | -1.0
CCCC#Cc1cnc2c(c1)C(=O)N([C@H](C)CO)C[C@@H](C)[C@H](CN(C)CCC)O2 | -10.8 | -0.7
C/C=C/c1cnc2c(c1)C(=O)N([C@@H](C)CO)C[C@@H](C)[C@@H](CN(C)C(=O)NC1CCCCC1)O2 | 13.1 | 5.3
CCN(C[C@@H]1[C@@H](c2ccc(-c3ccccc3F)cc2)[C@@H](CO)N1C(C)=O)C(C)=O | -0.4 | 4.6
CC(C)NC(=O)Nc1ccc2c(c1)CC(=O)N([C@H](C)CO)C[C@@H](C)[C@@H](CN(C)S(C)(=O)=O)O2 | 1.2 | -3.9
C[C@@H]1CN([C@@H](C)CO)C(=O)Cc2cc(NC(=O)CCCCCC(=O)Nc3ccccc3N)ccc2O[C@H]1CN(C)Cc1ccccc1 | -15.1 | -13.8
COc1ccc(S(=O)(=O)N(C)C[C@H]2OCCCC[C@@H](C)Oc3ccc(NC(=O)Nc4ccc(F)cc4)cc3C(=O)N([C@H](C)CO)C[C@H]2C)cc1 | -11.7 | 0.4
O=C(Nc1ccc(C(F)(F)F)cc1)Nc1ccc2c(c1)[C@@H]1C[C@@H](CC(=O)N3CCc4ccccc4C3)O[C@@H](CO)[C@@H]1O2 | -30.0 | -15.2
C[C@@H]1CCCCO[C@@H](CN(C)S(C)(=O)=O)[C@H](C)CN([C@@H](C)CO)C(=O)c2cc(NC(=O)Cc3ccccc3)ccc2O1 | 10.7 | 3.3
COc1ccc2c3c(n(C)c2c1)[C@H](CO)N(C(=O)C1CC1)CC31CCN(C)CC1 | -4.7 | -11.5
CCNC(=O)[C@H]1[C@H](CO)[C@H]2Cn3c(ccc(-c4cccc(F)c4)c3=O)[C@H]2N1Cc1nccs1 | 11.5 | 2.7
C[C@@H]1CN([C@H](C)CO)C(=O)c2cc(NC(=O)Nc3ccc4c(c3)OCO4)ccc2O[C@@H](C)CCCCO[C@H]1CN(C)Cc1ccc(Cl)c(Cl)c1 | -22.3 | -9.1
C[C@H](CO)N1C[C@H](C)[C@H](CN(C)Cc2ccc(C(F)(F)F)cc2)Oc2ccc(NC(=O)CCCCCC(=O)Nc3ccccc3N)cc2CC1=O | ? | nt
C[C@@H]1CN([C@@H](C)CO)C(=O)c2cccc(NS(=O)(=O)c3ccc(Cl)cc3)c2O[C@H]1CN(C)S(=O)(=O)c1ccccc1 | 7.7 | 5.8
COCC(=O)Nc1ccc2c(c1)OC[C@@H](C)N(Cc1cccnc1)C[C@H](C)[C@H](OC)CN(C)C2=O | 15.3 | 8.8
N#C[C@H]1[C@@H](c2ccccc2C2=CCCC2)[C@@H](CO)N1C(=O)C1CCOCC1 | -0.1 | -3.7
COc1ccc(NC(=O)N(C)C[C@@H]2OCCCC[C@@H](C)Oc3ccc(N(C)C)cc3C(=O)N([C@H](C)CO)C[C@@H]2C)cc1 | 18.3 | 7.2
O=S(=O)(N[C@@H]1CC[C@@H](CCn2cc(-c3cccnc3)nn2)O[C@@H]1CO)c1ccccc1 | 21.6 | 5.6
C[C@H]1CN([C@@H](C)CO)C(=O)c2cc(NC(=O)C3CC3)ccc2O[C@H]1CN(C)C(=O)Nc1cccc2ccccc12 | 7.8 | 18.2
CCNC(=O)[C@@H]1[C@@H](CO)[C@@H]2Cn3c(ccc(C4=CCCCC4)c3=O)[C@H]1N2Cc1cocn1 | -6.0 | -13.2
Cc1noc(C)c1NC(=O)Nc1ccc2c(c1)C(=O)N([C@@H](C)CO)C[C@H](C)[C@H](CN(C)CC1CC1)O2 | 14.0 | 17.1
Cc1ccc(S(=O)(=O)N[C@@H]2CC[C@H](CC(=O)NCc3ccc(Cl)c(Cl)c3)O[C@@H]2CO)cc1 | ? | nt
COC(=O)C[C@@H]1CC[C@@H]2[C@@H](COc3ccc(NC(=O)Nc4cccc(C)c4)cc3C(=O)N2C)O1 | -33.5 | -25.6
CO[C@@H]1CN(C)C(=O)c2ccc(NS(=O)(=O)c3ccc(F)cc3)cc2OC[C@@H](C)N(C(=O)NC(C)C)C[C@H]1C | 4.1 | 5.6
CNC(=O)C[C@@H]1CC[C@H]2[C@H](COc3ccc(NC(=O)Nc4ccccc4F)cc3C(=O)N2C)O1 | -2.5 | 6.7
O=S(=O)(c1ccccc1F)N1CCCCN2[C@H](CO)[C@@H](c3ccc(-c4cccnc4)cc3)[C@H]2C1 | 26.7 | 1.5
CN1CCN(C(=O)C[C@@H]2CC[C@@H]3[C@H](COC[C@@H](O)CN3CC3CCCC3)O2)CC1 | -4.9 | -5.8
O=C(C[C@@H]1C=C[C@@H](NC(=O)Nc2ccc(F)cc2)[C@@H](CO)O1)NCc1cccc(F)c1 | -3.9 | 7.5
O=C(C[C@@H]1C[C@H]2c3cc(NC(=O)c4ccc5c(c4)OCO5)ccc3O[C@H]2[C@H](CO)O1)NCC1CC1 | -1.0 | -1.0
O=C(C1CCCCC1)N1CC2(C1)[C@@H](c1ccccc1)[C@H](CO)N2Cc1nccs1 | 11.4 | 17.3
C[C@H](CO)N1C[C@H](C)[C@@H](CN(C)C(=O)c2ccc3c(c2)OCO3)Oc2cc(/C=C/c3ccccc3)ccc2S1(=O)=O | -27.6&-25.7 | -25.5&-18.8
C[C@@H]1CN([C@@H](C)CO)C(=O)c2cc(C#CC3CC3)cnc2O[C@@H]1CN(C)Cc1ccccn1 | 9.0 | 5.8
Cc1ccc(-c2ccc3c(c2)O[C@@H](CN(C)C(=O)Nc2ccc(F)cc2)[C@@H](C)CN([C@H](C)CO)S3(=O)=O)cc1 | ? | nt
O=C(N[C@H]1C=C[C@@H](CC(=O)N2CCc3ccccc3C2)O[C@H]1CO)C1CCOCC1 | 9.8 | 3.5
COc1ccc(S(=O)(=O)N[C@@H]2CC[C@@H](CC(=O)N3CCc4ccccc4C3)O[C@H]2CO)cc1 | 24.3 | 11.4
C[C@@H]1CN([C@H](C)CO)C(=O)Cc2cc(NC(=O)c3ccncc3)ccc2O[C@H]1CN(C)Cc1ccc(Oc2ccccc2)cc1 | -0.1 | 7.8
COc1ccccc1S(=O)(=O)N(C)C[C@H]1Oc2ncc(Br)cc2C(=O)N([C@@H](C)CO)C[C@H]1C | 18.4 | 7.4
Cc1noc(C)c1NC(=O)N(C)C[C@H]1Oc2ccc(NC(=O)Nc3ccccc3)cc2C(=O)N([C@@H](C)CO)C[C@H]1C | 8.4 | 10.6
COc1ccc(CN(C)C[C@@H]2Oc3c(NS(=O)(=O)c4ccc(C)cc4)cccc3C(=O)N([C@H](C)CO)C[C@H]2C)cc1 | -10.8 | -13.6
C[C@@H]1CN([C@@H](C)CO)C(=O)CCCn2nncc2CO[C@H]1CN(C)S(=O)(=O)c1ccc2ccccc2c1 | 0.6&4.1 | -0.9&1.0
C[C@@H]1CN([C@@H](C)CO)C(=O)c2cc(NC(=O)C3CCCCC3)ccc2O[C@@H](C)CCCCO[C@@H]1CN(C)C(=O)Nc1cccc2ccccc12 | 9.0 | 4.8
Cc1ccc(S(=O)(=O)Nc2ccc3c(c2)C(=O)N([C@H](C)CO)C[C@H](C)[C@@H](CN(C)S(=O)(=O)c2cccs2)O3)cc1 | -9.3 | 2.8
C[C@@H]1CN([C@@H](C)CO)C(=O)Cc2cc(NS(=O)(=O)c3ccc(Cl)cc3)ccc2O[C@@H]1CN(C)Cc1ccc(Oc2ccccc2)cc1 | 21.7 | 12.4
CN(C)C(=O)C[C@@H]1C[C@H]2c3cc(NS(=O)(=O)c4ccccc4)ccc3O[C@H]2[C@@H](CO)O1 | -3.2 | -3.9
C[C@@H]1CCCCO[C@@H](CN(C)C(=O)c2ccccc2)[C@@H](C)CN([C@H](C)CO)C(=O)c2cc(NS(=O)(=O)c3ccc(F)cc3)ccc2O1 | 17.1 | 4.1
CC(C)NC(=O)Nc1ccc2c(c1)C(=O)N([C@@H](C)CO)C[C@H](C)[C@H](CN(C)C(=O)CCC(F)(F)F)OCCCC[C@@H](C)O2 | 21.3 | 9.1
C[C@H]1CCCCO[C@H](CN(C)S(=O)(=O)c2ccc(Cl)cc2)[C@@H](C)CN([C@@H](C)CO)C(=O)c2cc(NS(=O)(=O)c3ccc(F)cc3)ccc2O1 | -23.9 | -11.9
Cc1ccc(S(=O)(=O)N(C)C[C@H]2Oc3ccc(NC(=O)Nc4ccc5c(c4)OCO5)cc3C(=O)N([C@H](C)CO)C[C@@H]2C)cc1 | -5.5 | -10.3
C[C@@H]1CN([C@@H](C)CO)C(=O)c2cccc(NS(=O)(=O)c3cccs3)c2O[C@@H]1CN(C)Cc1ccc(Cl)c(Cl)c1 | -9.1 | -12.1
C[C@H]1CN([C@@H](C)CO)C(=O)c2cccc(NC(=O)c3ccc(-c4nccs4)cc3)c2O[C@@H]1CN(C)Cc1ccc(Oc2ccccc2)cc1 | -5.2 | -4.0
O=C(NCC[C@H]1CC[C@@H](NS(=O)(=O)c2ccc(F)cc2)[C@H](CO)O1)c1ccccc1F | 4.4 | 4.0
C[C@@H]1CN([C@H](C)CO)C(=O)c2cc(N(C)C)ccc2O[C@H]1CN(C)S(C)(=O)=O | -4.5 | -2.2
Cc1ccc(S(=O)(=O)N(C)C[C@@H]2Oc3c(NC(=O)NC4CCCCC4)cccc3C(=O)N([C@@H](C)CO)C[C@@H]2C)cc1 | ? | nt
Cc1noc(C)c1S(=O)(=O)Nc1ccc2c(c1)C(=O)N([C@@H](C)CO)C[C@H](C)[C@@H](CN(C)C(=O)CCC(F)(F)F)OCCCC[C@H](C)O2 | -6.9 | -9.0
CN(C)C(=O)[C@H]1[C@H](CO)[C@H]2Cn3c(ccc(-c4ccncc4)c3=O)[C@@H]1N2CC1CC1 | 7.5 | 5.9
C[C@@H]1CCCCO[C@@H](CN(C)C(=O)CCCN(C)C)[C@@H](C)CN([C@@H](C)CO)C(=O)c2cc(NS(=O)(=O)c3ccc(Cl)cc3)ccc2O1 | 20.2 | 7.1
C[C@@H]1CN([C@@H](C)CO)C(=O)c2ccccc2-c2ccccc2CO[C@H]1CN(C)CC1CC1 | 15.5 | 5.3
CCCN(C)C[C@H]1OCCCC[C@@H](C)Oc2ccc(N(C)C)cc2C(=O)N([C@H](C)CO)C[C@H]1C | 3.3 | 2.3

Further records.
mol | Vaccinia inh | Vaccinia inh Venus
O=C(C[C@@H]1CC[C@@H]2[C@H](COC[C@H](O)CN2C(=O)c2ccccc2F)O1)NCc1ccc(-c2ccccc2)cc1 | ? | nt
C[C@@H]1CN([C@@H](C)CO)C(=O)c2cc(-c3ccncc3)cnc2O[C@H]1CN(C)S(=O)(=O)c1ccccc1 | 7.3 | 25.9
Cc1noc(C)c1NC(=O)Nc1cccc2c1O[C@H](CN(C)Cc1ccc(Oc3ccccc3)cc1)[C@@H](C)CN([C@@H](C)CO)C2=O | ? | nt
O=C(Cc1ccccc1)N1C[C@@H]2[C@H](c3ccccc31)[C@@H](CO)N2Cc1ccccc1 | -6.8 | -12.5
COc1ccc2c3c(n(C)c2c1)[C@@H](CO)N(C(C)=O)CC31CCN(C(=O)c2ccccc2)CC1 | 2.7 | -5.1
CCNC(=O)[C@H]1[C@H](CO)[C@H]2Cn3c(cccc3=O)[C@@H]1N2C(=O)c1ccc(F)cc1 | 7.4 | -1.9
O=C(C[C@H]1CC[C@@H]2[C@H](COC[C@@H](O)CN2Cc2nccs2)O1)NCc1ccc(Oc2ccccc2)cc1 | -24.3 | -10.9
C[C@H](CO)N1C[C@H](C)[C@H](CN(C)Cc2ccc3c(c2)OCO3)Oc2c(NS(=O)(=O)c3cccs3)cccc2C1=O | 7.8 | 6.3
C[C@@H]1CN([C@@H](C)CO)C(=O)c2c(c3ccccc3n2C)-c2ccccc2CO[C@@H]1CN(C)C | -14.0 | 2.2
CC(C)COC(=O)N(C)C[C@H]1OCc2ccccc2-c2ccccc2C(=O)N([C@H](C)CO)C[C@H]1C | -2.7 | -6.1
CC(=O)N(C)C[C@@H]1Oc2cc(-c3cccc(F)c3)ccc2S(=O)(=O)N([C@H](C)CO)C[C@H]1C | -9.4 | 5.9
Cc1noc(C)c1NC(=O)N[C@H]1CC[C@H](CC(=O)Nc2ccccc2)O[C@H]1CO | -3.1 | 4.7
Cc1noc(C)c1NC(=O)N(C)C[C@H]1Oc2ccc(NC(=O)CCN3CCOCC3)cc2C(=O)N([C@@H](C)CO)C[C@@H]1C | 23.1 | 3.1
C[C@H]1CN([C@@H](C)CO)C(=O)c2cc(NC(=O)NC3CCCCC3)ccc2O[C@@H]1CN(C)Cc1ccncc1 | 2.8 | 3.7

Not all compounds are listed (hit frequency here may not be typical).
